Compound activity: PubChem, National Center for Advancing Translational Sciences (NCATS)
HSD17B inh – blocks hydroxysteroid 17-beta dehydrogenase activity. Potency, µM (series often up to 57.1 µM), without a hit: at the top dose activity change, negative = inhibition, most hits filed as inhibitors. 75,000 compounds, 7.6% hits. recombinant HSD17B10, NADH fluorescence kinetic; many of its hits are not listed in these tables. Q99714; active means well fitted inhibition curve with a large enough effect; inconclusive means small, poorly fitted or top-dose-only effect; inactive means no such curve, though single readings can be large or run the other way;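 further: the protocol describes HADH2 (HSD17B10) and not the HSD17B4 of the title; nearly all actives have a fitted effect of over 70% in size; most hits overshoot -100% by far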
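Activity followed as NADH fluorescence increase (ex 360, em 450 nm) every 30 seconds for 4 min, using final 90 uM beta-hydroxybutyryl CoA and 1 mM NAD+. Recombinant His-tagged enzyme, 20 nM, pH 9.0 Tris buffer, 15 min compound preincubation.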
Starred values were filed as active, the others as inactive; u = inconclusive; [ ] = remark or other dose. On the % scale 0 is the no-effect control and ±100 the full control effect; potency means the concentration at half of the fitted maximal effect. Only part of the results is shown (hit frequency here may not be typical).

SMILES	HSD17B inh
CCOCCCN(Cc1cc2cc(C)cc(C)c2[nH]c1=O)C(=O)N(CC)CC	-17%
O=C(Cc1c(F)cccc1Cl)c1ccc(O)cc1O	-3%
COc1ccccc1CNC(=O)C1CCN(Cc2nc(-c3ccc(Cl)cc3)oc2C)CC1	-4%
Cc1cc(N2CCC(C)CC2)nc2ccc(N3C(=O)CCC3=O)cc12	495%[activator]
CCOC(=O)N1CCN(c2c(NCCN(C)Cc3ccccc3)c(=O)c2=O)CC1	9%
CCC1(CC)C(=O)N(C)C(=O)NC1=Nc1ccccc1	14%
Cn1c(=O)[nH]c(=O)c2c1nc(N1CCCCCC1)n2CCCSc1nc2ccccc2o1	-4%
COCCCN=C(c1ccco1)n1c(=S)nc(-c2ccco2)n(CCCOC)c1=S	u
COc1ccc(N2CCN(C(c3cc(OC)ccc3OC)c3nnnn3Cc3ccco3)CC2)cc1 (stereo unspecified)	-19%
CCOC(=O)c1c(NC(=O)CSc2nnc(CNc3ccc(F)cc3)o2)sc(C)c1C	-4%
CCOC(=O)Cn1c(=O)oc2cc(S(=O)(=O)N3CCCC(C(=O)OCC)C3)ccc21 (stereo unspecified)	0%
CC1(C)O[C@@H]2O[C@H]([C@H](O)CO/N=C3/[C@H]4O[C@@H]4[C@@H](O)[C@H]4[C@H]3CCn3c(=O)n(-c5ccccc5)c(=O)n34)[C@@H](O)[C@@H]2O1	-2%[11.4 µM]

Overlap with the part before: five entries, followed by the next part.
SMILES	HSD17B inh
COCCCN=C(c1ccco1)n1c(=S)nc(-c2ccco2)n(CCCOC)c1=S	u
COc1ccc(N2CCN(C(c3cc(OC)ccc3OC)c3nnnn3Cc3ccco3)CC2)cc1 (stereo unspecified)	-19%
CCOC(=O)c1c(NC(=O)CSc2nnc(CNc3ccc(F)cc3)o2)sc(C)c1C	-4%
CCOC(=O)Cn1c(=O)oc2cc(S(=O)(=O)N3CCCC(C(=O)OCC)C3)ccc21 (stereo unspecified)	0%
CC1(C)O[C@@H]2O[C@H]([C@H](O)CO/N=C3/[C@H]4O[C@@H]4[C@@H](O)[C@H]4[C@H]3CCn3c(=O)n(-c5ccccc5)c(=O)n34)[C@@H](O)[C@@H]2O1	-2%[11.4 µM]
Cc1nc2ccc(S(=O)(=O)NCC(=O)N3CCC(N4CCCCC4)CC3)cc2s1	9%
C(=N\n1cnnc1)/C1CCCCC1	-4%
CCCCOCCCNC(=O)COc1ccccc1	-2%
Cc1ccc(C)c(NC2=NS(=O)(=O)c3ccccc32)c1	47%[activator]
CCOc1ccc2c(c1)N(C(=O)CN1C(=O)CCC1=O)C(C)(C)C=C2C	6%
CC(=O)Nc1ccc(C(=O)Cn2nnc3ccccc3c2=O)cc1	-2%
CCCCCNC(=O)c1cc(S(=O)(=O)N2CCCCC2)ccc1F	7%
COc1ccc(-c2cc(C(=O)N3CCN(C(c4ccccc4)c4ccccc4)CC3)no2)cc1	15%
Cc1ccccc1OCC(=O)NCC1CCCO1 (stereo unspecified)	0%
CCOc1ccccc1NC(=O)CSc1nnc(-c2cnccn2)n1C	1%
Cc1c(O)nc(SC2CC(=O)N(c3ccccc3)C2=O)[nH]c1=O (stereo unspecified)	-6%
CCOC(=O)CN1CC23C=CC(O2)C(C(=O)O)C3C1=O (stereo unspecified)	4%

Single entries from the entries so far.
Under HSD17B inh, CCCCOCCCNC(=O)COc1ccccc1 is entered as -2%
Under HSD17B inh, Cc1ccc(C)c(NC2=NS(=O)(=O)c3ccccc32)c1 is entered as 47%[activator]
Under HSD17B inh, CC(=O)Nc1ccc(C(=O)Cn2nnc3ccccc3c2=O)cc1 is entered as -2%
Under HSD17B inh, Cc1c(O)nc(SC2CC(=O)N(c3ccccc3)C2=O)[nH]c1=O (stereo unspecified) is entered as -6%
Under HSD17B inh, CCOC(=O)CN1CC23C=CC(O2)C(C(=O)O)C3C1=O (stereo unspecified) is entered as 4%
Under HSD17B inh, CCCCCNC(=O)c1cc(S(=O)(=O)N2CCCCC2)ccc1F is entered as 7%
Under HSD17B inh, C(=N\n1cnnc1)/C1CCCCC1 is entered as -4%

Remaining list, next part
SMILES	HSD17B inh
Cc1ccc(CNC(=O)CCCn2c(=O)[nH]c3ccccc3c2=O)cc1	u
Cc1cc(C(=O)Nc2ccon2)cs1	-2%
CCOc1cc(OCC)cc(C(=O)Nc2cccnc2)c1	1%
COc1ccc(OC)c(N(CC(=O)Nc2ccc(NC(C)=O)cc2)S(C)(=O)=O)c1	7%
Cc1ccc2nc(Nc3ccc4[nH]c(=O)[nH]c4c3)c(-n3nc(C)cc3C)nc2c1	2%
O=c1[nH]c(CN2CCN(C/C=C/c3ccccc3)CC2)nc2ccccc12	-9%
N#Cc1ccccc1-c1nc(NCCN2CCOCC2)c2ccccc2n1	-7%
Cc1cc(SCC(=O)c2ccccc2)nc(C)n1	-2%
CS(=O)(=O)N(CC(=O)Nc1ccc2c(c1)OCO2)Cc1ccc(Cl)cc1	-13%
COCCN(C(=O)CCCC(=O)Nc1ccccn1)C(C(=O)NC1CCCC1)c1ccc(C)cc1 (stereo unspecified)	13%
CCNc1ncc2nc(-c3cn(C)c4ccccc34)c(=O)n(CCC#N)c2n1	-25%
COc1cc(N)c(Cl)cc1C(=O)CCC1CCN(CCNS(C)(=O)=O)CC1	6%
COc1ccc(N(C(=O)c2cccc(OC)c2OC)C2C=CS(=O)(=O)C2)c(OC)c1 (stereo unspecified)	6%
Cc1onc(-c2ccccc2)c1C(=O)N1CCOCC1	8%
CCNC(=O)c1c(C)[nH]c(C(=O)OCC)c1C	1%
O/N=C1/CCCSc2ccccc21	-6%
O=c1cnnc(NCc2ccccc2)[nH]1	9%
O=C(NCc1ccccc1)C1CCN(S(=O)(=O)N2CCCCCC2)CC1	5%
O=C(NCCC1=CCCCC1)c1cnsn1	4%
CCOC(=O)c1c(C)[nH]c(C(=O)OC/C(O)=C(\C#N)c2nc3ccccc3[nH]2)c1C	32µM*
O=C(Nc1ccc(-c2nc3ccccc3[nH]2)cc1)C1CCCO1 (stereo unspecified)	13%
O=C(c1cccc(F)c1)N1CCC2(CC1)CN(c1ccc(-c3ccccc3)cc1)C2	u
Cn1c(=O)c2c(ncn2CN2CCN(Cn3cnc4c3c(=O)n(C)c(=O)n4C)CC2)n(C)c1=O	6%[11.4 µM]
CCCC(=O)N(c1ccc(F)cc1)C1C=CS(=O)(=O)C1 (stereo unspecified)	6%
O=C(Nc1ccc(Cl)cc1)C1CC=CCC1C(=O)OCC(F)(F)C(F)F (stereo unspecified)	-1%
O=C(c1ccco1)N1CCN(C(=O)c2ccc(Cn3cc(Br)cn3)o2)CC1	-2%
COC(=O)c1cc2sc(Cl)cc2n1CC(=O)Nc1cccc(SC)c1	-5%
N=C(N)SCCc1cccc(CCSC(=N)N)c1	-8%
O=S(=O)(N=S(N1CCCCC1)N1CCCCC1)c1ccccc1	-8%
Cc1ccc(OCc2nnc(SCC(=O)Nc3sc(C)c(C)c3C#N)n2C)cc1	5%
CCc1ccc(N(CC)c2ncnc3nc[nH]c23)cc1	6%
Cc1cc(-c2ccccc2)c2c3c(cn2n1)c(=O)n(C)c(=O)n3C	4%
CNC(=O)[C@@H](Cc1ccccc1)N(C)C(=O)[C@@H](Cc1ccc2ccccc2c1)N(C)C(=O)/C=C/CC(C)(C)N	52%[activator]
COc1cc(C2C(C#N)=C(C)NC3=C2C(=O)CC(C)(C)C3)ccc1O (stereo unspecified)	-6%
CCOC(=O)C1CCCN(C(=O)c2cn(C)c3ccc(S(=O)(=O)N4CCCC4)cc3c2=O)C1 (stereo unspecified)	-4%
CCCOC(=O)Cn1c(=O)c2cc3c(=O)n(CC(=O)OCCC)c(=O)c3cc2c1=O	7%
Cc1ccccc1OCC(O)CN (stereo unspecified)	6%
CCCOC(=O)C1[C@H]2C(=O)N(C(C)c3ccc(OC)cc3)C[C@]23C=C[C@H]1O3 (stereo partly specified)	5%
COCCn1c(SCC(=O)NC(=O)NCc2ccccc2)nc2ccccc21	-6%
Cc1ccn2cc(C(=O)Nc3ccccc3N3CCOCC3)nc2c1	1%
CCOC(=O)Cn1nnc(-c2ccc(SC)cc2)n1	-2%
O=C(N/N=C1/C[C@@H](O)[C@@H](O)[C@@H]2[C@@H]3C(=O)N(Cc4ccc5c(c4)OCO5)C(=O)[C@H]3CC[C@@H]12)OCc1ccccc1	7%[11.4 µM]
Cc1cccc(Cn2c(NCCO)nc3c2c(=O)n(C)c(=O)n3C)c1	0%
Cn1c(=O)[nH]c(=O)c2c1nc(CN1CCN(Cc3ccccc3)CC1)n2CC(N)=O	6%
Cc1cc2nc(SCC(=O)O)nc(C)c2cc1C	u
COc1ccc(NC(=O)Cn2cccc2)c(OC)c1	12%
Cc1ccccc1C(N)=O	1%
COc1cccc(C(=O)Nc2c3c(nn2-c2cccc(C)c2C)CS(=O)C3)c1OC (stereo unspecified)	10%
COc1ccc(-c2nnc3n2-c2ccccc2SC3)cc1OC	1%
O=C(CCc1n[nH]c(=O)[nH]c1=O)N1CCOCC1	u
Fc1ccccc1CSc1nnc(Cn2cnc3ccccc32)n1-c1ccccc1	1%
Cc1noc(C)c1-c1cc(NCc2cccs2)ncn1	7%
CCOc1ccc(N(CC(=O)NCc2ccc(OC)cc2)S(=O)(=O)c2c(C)noc2C)cc1	-1%
CC(C)c1ccc(-c2nc(N3CCCC3)nc3n[nH]c(N)c23)cc1	8%
COc1ccc(Cl)cc1N(CC(=O)Nc1ccccc1SC)S(C)(=O)=O	-6%
CCOC(=O)CCC(NC(=O)c1cncc(O)c1)C(=O)OCC (stereo unspecified)	25µM*
CC1=C(C(=O)Nc2ccccc2C)C(c2ccc(C)o2)C2=C(CCCC2=O)N1 (stereo unspecified)	-18%
COc1ccc(C(=O)OCC(=O)c2ccc(C)c(S(=O)(=O)N3CCOCC3)c2)cc1OC	55%[activator]
CN(Cc1ccccc1)C(=O)CCS(=O)(=O)c1ccc2c(c1)n(C)c(=O)c(=O)n2C	u
COc1ccc(NC(=O)CSc2nc3c(cc2C#N)CN(C)CC3)cc1	11%

New compounds follow:
SMILES	HSD17B inh
COc1ccc(Cn2c(CCC(=O)NCc3ccco3)nc3cccnc32)cc1	8%
CCOC(=O)c1c(C)c(C(=O)NCc2ccccc2OC)c(C)n1C	-3%
O=C(CN1C(=O)CCSc2ccccc21)Nc1cccc(F)c1	5%
COc1ccc(CCNC(=O)CN2CCC(n3nnc4cc(F)ccc43)CC2)cc1OC	20%
O=c1c2ccccc2sn1-c1ccc(S(=O)(=O)N2CCCC2)cc1	1µM*
CCCc1nnc(SCc2ccc(C(=O)OC)o2)n1N	u
COCCNc1ncnc2ccc(-c3ccccc3OC)cc12	25µM*
COc1ccc(-c2nnc3n2N=C(C)CS3)cc1OC	-18%
O=C(NS(=O)(=O)c1ccccc1)c1ccccc1F	5%
Cc1cc(NC(=O)Nc2ccccc2)n(-c2ccccc2)n1	-14%
COc1ccc(Cn2c(-c3ccco3)nc3oc4ccccc4c(=O)c3c2=O)cc1	-2%
C=CCOC(=O)C1=C(C)Nc2nc3ccccc3n2C1c1ccncc1 (stereo unspecified)	32µM*
Clc1ccccn1	0%
Cc1nnc(SCC(=O)NCCc2ccccc2)[nH]c1=O	u
O=c1cc(-c2ccccc2)[nH]c2nc3ccccc3n12	25µM*
CN(C)S(=O)(=O)c1cccc(C(=O)Nc2cc(Cl)ccc2O)c1	4%
CCn1c(=O)cc(O)c2c(=O)n(C)c(=O)n(C)c21	-2%
CCOC(=O)c1cnc2nc(Cc3ccccc3)[nH]n2c1=O	-2%
O=S1(=O)C=C(Sc2nnc(-c3ccccc3)o2)c2ccccc21	u
COc1ccc(NC2SC(=O)N(CC(=O)O)C2=O)cc1 (stereo unspecified)	-12%
Cc1cc(C)n(S(=O)(=O)c2ccc3ccccc3c2)n1	-5%
Cc1ccc(S(=O)(=O)N2CCC(C(=O)O)(c3ccccc3)CC2)cc1	9%[11.4 µM]
CCCS(=O)(=O)N1CCC(C(=O)NC2CCCC(C)C2C)CC1 (stereo unspecified)	-2%
Cc1cccc(-c2nnc(N)s2)c1	9%
O=[N+]([O-])c1ccc(F)cc1F	-12%
O=S(=O)(NCCSc1ccccc1)c1ccc2c(c1)OCCO2	-15%
CCOC(=O)c1ccc(COC(=O)c2cc(=O)[nH]c3ccccc23)o1	u
O=C(O)Cc1cc(I)c(Oc2cc(I)c(O)c(I)c2)c(I)c1	-4%
CCCCNC(=O)CCn1nc(-c2ccccc2)ccc1=O	u
CCCCC(CC)C(=O)NCCc1ccc(S(N)(=O)=O)cc1 (stereo unspecified)	12%
O=C(Nc1ccc(CN2CCCCC2)cc1)c1ccc2c(c1)OCO2	-2%
COc1ccc(C2COc3c(ccc(O)c3OC)C2)c(OC)c1O (stereo unspecified)	0%
CC(=O)N1CCc2c(sc(NC(=O)c3ccc(S(=O)(=O)N(C)C)cc3)c2C#N)C1	-2%
CCN(CC)S(=O)(=O)c1ccc(-c2nnco2)cc1	1%
CNC(=O)CN(C)S(=O)(=O)c1ccc(OC)c(Cl)c1	7%
C=CCn1c(COc2ccccc2)nnc1SCC(=O)NCC(=O)OCC	1%
N#CC1(c2ccccc2)CCCN1C(=O)c1ccc(Br)o1 (stereo unspecified)	5%
CC(=O)n1nc(-c2ccccc2)nc1NCc1ccc(F)cc1	132%[activator]
COc1cccc(-c2csc(N3CCN(C(=O)Nc4ccccc4OC)CC3)n2)c1	-3%
CCCCNC(=O)C1C2C=CC3(CN(Cc4ccc(C)cc4)C(=O)C13)O2 (stereo unspecified)	5%
COc1ccc(OCC(=O)OCC(=O)Nc2ccc(S(=O)(=O)N3CCCCC3)cc2)cc1	-2%
CC(C)C(=O)N1CCN(CCN=CC2=C(O)CC(c3ccco3)CC2=O)CC1 (stereo unspecified)	-6%
O=C(O)c1cccc(N2CCCC2=O)c1	3%
CC1CN(C(=O)CN2C(=O)c3ccccc3C2=O)CC(C)O1 (stereo unspecified)	5%
COc1ccc(N2C(=O)CC(Sc3nccc(C)n3)C2=O)cc1 (stereo unspecified)	-2%
